# Screening data from PubChem.
# Rce1 inhib: yeast Ras-converting enzyme inhibition; Q03530; yeast membranes, quenched prenylated peptide cleavage fluorescence; calls only; 290,000 compounds, 0.27% hits; AID 2563;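 active = fall in fluorescence gain of 50% or more versus controls, with final raw signal at or below 3038400; inconclusive = same 50% fall but final raw signal above 3038400; inactive = fall in fluorescence gain under 50%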;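 note: plate controls were neutral control wells for no effect and wells lacking membranes for full effect; tested at 10 µM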
# Target sequence (Q03530 whole entry, looked up): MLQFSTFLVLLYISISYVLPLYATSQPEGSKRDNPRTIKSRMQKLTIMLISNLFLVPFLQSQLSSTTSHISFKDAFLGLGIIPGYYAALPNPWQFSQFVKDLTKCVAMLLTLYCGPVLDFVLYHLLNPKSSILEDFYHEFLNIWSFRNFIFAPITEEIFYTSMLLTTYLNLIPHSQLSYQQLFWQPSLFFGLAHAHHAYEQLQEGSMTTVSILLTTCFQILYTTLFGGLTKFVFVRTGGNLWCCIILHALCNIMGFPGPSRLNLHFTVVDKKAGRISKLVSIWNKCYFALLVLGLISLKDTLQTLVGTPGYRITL
# MT1-MMP act inh: MT1-MMP (human) activation inhibition; HT1080 RFP-PRO-GFP cells, GFP/RFP ratio fluorescence, overnight; percent of plate control window, DMSO zero; P50281; GFP/RFP ratio change, % at 20 µM; 360,000 compounds, 0.061% hits;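 active = GFP/RFP ratio change of at least 30% with cell ATP level not reduced by more than half and red fluorescence within 50% of control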; note: strong numbers were not always called active
#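 system = RFP-PRO-GFP reporter HT1080 cells | dosing = 20 µM single dose, 1% DMSO | timing = overnight cell settling, then overnight compound exposure, 37 °C, 5% CO2 | read-out basis = GFP/RFP fluorescence ratio | controls = DMSO and RFP-L50D-GFP cell wells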
# eIF4H FP inh: inhibitors of RNA binding by human eIF4H. Q15056. eIF4H fluorescence polarization binding assay. inhibition, % at 35 µM. 290,000 compounds, 0.94% hits;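 active = 50% or more with normal probe brightness, or confirmed in later tests; inconclusive = above 50% with abnormal brightness, or retests that disagree; inactive = below 50% or failed in later tests; about a fifth of its hits are not listed in these tables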;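 note: calls also rest on retests at 20 µM and on dose response follow-up; 0% = protein and probe with vehicle and 100% = probe without protein; strong numbers were not always called active; many hits fall short of the cut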
# PABP FP inh: blocks human PABP binding to poly(A) RNA; P11940; fluorescence polarization; inhibition, % at 35 µM; 290,000 compounds, 1% hits;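 active = 50% or more with normal probe brightness, or confirmed in later tests; inconclusive = above 50% with abnormal brightness, or retests that disagree; inactive = below 50% or failed in later tests; about a fifth of its hits are not listed in these tables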;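 note: calls also rest on retests at 20 µM and on dose response follow-up; controls were probe without protein and protein plus probe with vehicle; some compounds called inactive have numbers as strong as hits; many hits fall short of the cut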
# CSC inhib: blocks cancer stem cells; cancer stem cell-like cells viability, luminescence; inhibition, % at 7.5 µM; 300,000 compounds, 1.1% hits;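 active = mean at 75% or more and at least half the replicates too; inconclusive = mean and replicates disagree; tested in HMLE shEcad cells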;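 note: 0% = median of negative and 100% = median of positive control wells; the first replicate is given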
# Env fusion inh: blocks HIV Env-driven cell-cell fusion. inhibition, % at 12.3 µM. HeLa-JRFL Env/CEM21 cell fusion, luciferase. 360,000 compounds, 1.1% hits. AID 651610;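 active = mean replicate inhibition score of at least 50 and every replicate individually at or above 50; inconclusive = only one of the two criteria met; inactive = mean below 50 and not all replicates reaching 50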;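 note: 0% = plate neutral controls and 100% = maraviroc near 300 nM; one replicate is shown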
# Yeast UUG start: alters start codon recognition fidelity in yeast; 350,000 compounds, 0.13% hits; activity score, % at 18.7 µM; S. cerevisiae UUG-firefly luciferase reporter, luminescence/redox ratio;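 active = replicate mean at a twofold rise or more, about +100% in these data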;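 note: firefly luciferase made from a UUG start codon reports start codon fidelity; reporter light over untreated wells divided by growth signal over untreated wells; some hits fall short of that in this replicate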
# eIF4H FP inh retest: further read-out of eIF4H FP inh, marked with its call; inhibition, %; compound at 20 µM; confirmation average;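 mean of two retest wells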
# PABP FP inh retest: also measured in PABP FP inh; calls as there; inhibition, %; compound at 20 µM; confirmation repeats;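 mean of two retest wells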
# MT1-MMP act inh RFP: recorded beside MT1-MMP act inh, whose call it bears; RFP signal change, %; measured here: RFP expression control read;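 0 = vehicle wells; hits needed this value within 50% of zero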
# * hit, by the source's call; i = inactive; ? = inconclusive; . = no result given; & = joins results of further samples. An excerpt; count on the stated rates, not on these rows.
SMILES,Rce1 inhib,MT1-MMP act inh,MT1-MMP act inh RFP,eIF4H FP inh,PABP FP inh,CSC inhib,Env fusion inh,Yeast UUG start,others
CCSc1nc2ccccc2n1C(=O)/C=C\c1ccc(OC)c(OC)c1,i,-11,-25,-6,-3,-66,-337,-6,
CN(C)S(=O)(=O)c1ccc(NC(=O)CN2C(=O)NC3(CCCC3)C2=O)cc1,i,-1,3,-9,-5,1,-12,-8,
Cc1cc(C)cc(C(=O)N2CCN(Cc3ccc4c(c3)OCO4)CC2)c1,i,-1,-2,-3,-11,-8,-42,-20,
CC(C)c1nc2oc3c(NCC4CCCO4)ncnc3c2c2c1COC(C)(C)C2 (stereo unspecified),i,-4,0,-20,-2,.,27,-13,
CCOC(=O)C1=C(COC(=O)COc2ccc(Br)cc2)NC(=O)NC1C (stereo unspecified),i,3,4,.,.,4,1,-5,
O=C(Nc1ccncc1)C1CCC(CNS(=O)(=O)c2cccc3nsnc23)CC1 (stereo unspecified),i,-10,-18,7,10,62,11,-1,
COCCCNC(=O)Cn1cc(/C=C(\C#N)C(=O)NC2CCCC2)c2ccccc21,i,-1,0,1,5,-9,-6,-8,
Cc1cccc(C)c1NC(=O)C(c1ccccc1OC(F)(F)F)N1CCN(c2ccc(F)cc2)CC1 (stereo unspecified),.,-9,-13,.,.,.,-20,-9,
Cc1ccc(NC(=O)c2c(C)nn(-c3ccccc3)c2Cl)c(C)c1,i,-3,-4,4,-13,-5,.,-8,
CC(=O)c1ccc(NC(=O)C2CCCN2S(=O)(=O)c2cccs2)cc1 (stereo unspecified),i,-2,-1,.,.,-11,5,-8,
O=C(CCc1nnc(-c2ccc3c(c2)OCO3)o1)N(Cc1ccncc1)CC1CCCO1 (stereo unspecified),.,1,-2,-11,7,2,16,3,
C[n+]1c2cc(N)ccc2cc2ccc(N)cc21,.,-100&-91,-12&-7,.,.,.,-101,-56&-37,
CC1(C(=O)N2CCC(CC3CC(c4ccc(Cl)cc4)=NO3)(C(=O)NCC3CCCCC3)CC2)CC1 (stereo unspecified),i,-4,-3,9,13,-1,-5,-10,
c1ccc(-c2nc3ccccc3s2)nc1,i,0&2,4&3,1&-9,7&3,8,-371&-43,-20&-15,
CCN(CC)CCCn1c(=S)[nH]c2ccccc2c1=O,i,-3,-2,-1,0,-1,-20,-11,
Clc1cccc(OCCn2cncn2)c1Cl,.,1,1,5,11,-4,.,9,
O=C(O)c1ccc(S(=O)(=O)c2ccc(Sc3ccc(C(=O)O)c(C(=O)O)c3)cc2)cc1,i,-1,5,-8,22,6,-32,24,
CCOc1ccccc1N1CC(C(=O)Nc2ccccc2N2CCCC2)CC1=O (stereo unspecified),i,0,2,.,.,1,-1,12,
Cc1cc(C(F)(F)F)nn1CC(=O)NNC(=S)Nc1ccc(Cl)cc1,i,8,6,5,5,-2,-18,.,
CCN(CC)c1ccc2cc(/C(N)=N/NC(=O)c3cccs3)c(=O)oc2c1,i,.,.,?,?,6,.,.,
CCC(=O)N1CCc2cc(S(=O)(=O)NC(Cc3ccccc3)C(=O)NC3CCCC3)ccc21 (stereo unspecified),i,-2,2,-1,-11,-12,-104,-3,
CS(=O)(=O)N1CCN(c2ccc([N+](=O)[O-])c(SCc3ccco3)c2)CC1,i,-1,-6,101,-8,23,2,-22,eIF4H FP inh retest=-2;PABP FP inh retest=15
COc1ccc(-c2nc(NC(=O)c3ccc(OCC(=O)N4CCOCC4)c(OC)c3)sc2C)cc1,i,-1,3,-18,-6,-2,36,.,
CCCC(=O)Nc1nnc(-c2ccc3c(c2)OCCO3)o1,i,0,0,-6,-3,13,2,.,
Cc1nn(-c2ccccc2)c(C)c1NC(=O)COC(=O)c1cccc(OC(F)F)c1,i,1,5,.,.,5,4,.,
COc1ccc(CSCC(=O)NCCC(C)C)cc1,i,0,7,-12,-10,-6,14,.,
CCCCCn1c(C(Cc2ccccc2)NC(=O)COC)nc2ccccc21 (stereo unspecified),i,-9,-5,-12,0,-7,25,-7,
COc1cccc(OC)c1OCCCNC1CCCC1,i,-3,-2,11,1,13,2,-1,
Cc1cc(C)c2nc(N3CCC(C(=O)N4CCCC4)CC3)sc2c1,i,2,-7,-10,-2,16,.,11,
OC[C@H]1O[C@@H](Oc2cc(O)cc(/C=C/c3ccc(O)cc3)c2)[C@H](O)[C@@H](O)[C@@H]1O,i,.,.,27,12,-4,.,.,
CCOC(=O)c1c(N2CCN(c3ccccc3)CC2)cc(C)nc1C,i,0,-6,-2,9,8,-4,-17,
CCCNC(=O)C1(C)CCN1C(=O)c1cc(C)n(C)n1 (stereo unspecified),.,-2,2,.,.,.,1,-19,
CCc1nnc(NC(=O)CSc2nnnn2-c2cccc(C(C)=O)c2)s1,i,2,1,-1,-3,-4,17,.,
CC(=O)c1cccc(N(CC(=O)NC2CCCCC2)C(=O)CCC(=O)Nc2nc(C)cs2)c1,i,3,3,-7,4,.,-18,-19,
COc1cc(/C(C)=N/Nc2ccc(C(=O)O)cc2)cc(OC)c1OC,i,9,3,9,5,-9,-4,-23,
CCCCCC(=O)N1C[C@@H](n2cc(COC(=O)c3ccccc3)nn2)[C@H](O)C[C@@H]1c1ccc(OC)cc1,.,-1,4,.,.,.,-56,5,
Cn1c(CSCc2ccc(Cl)cc2)n[nH]c1=S,i,4,-1,4,-6,-6,-10,-25,
CC1=C(C(=O)NCCCOC(C)C)C2(CCC(C)CC2)OC1=O (stereo unspecified),i,2,7,-3,-10,-9,1,-3,
CCn1c(=S)sc2c(=O)n(CC(=O)Nc3cc(OC)ccc3OC)c(C)nc21,i,4,1,-2,1,-3,12,-1,
CCOc1ccc2cc(S(=O)(=O)N3CCCCC3)ccc2c1,i,-1,-6,-1,7,17,-7,-4,
C1CCN(c2nc3nonc3nc2NCC2CCOCC2)CC1,i,-1,1,-5,3,-19,7,-6,
CCOc1ccc(C(=O)Nc2nnc(S(=O)(=O)N(C)Cc3ccco3)s2)cc1,i,-2,-2,-10,4,16,3,-17,
Clc1ccc2nc(CSc3ccccc3)cn2c1,i,2,-2,6,5,-9,-16,.,
O=S(=O)(c1ccccc1)c1nc(-c2ccccc2)oc1N1CCCCC1,i,5,3,-8,7,-7,-24,-23,
O=C(COc1ccccc1-c1ccccc1)N/N=C/c1cccc2ccccc12,i,7,-12,-13,11,95*,.,-11,
O=C(N/N=C/c1ccc[nH]1)c1cccnc1,i,6,4,3,11,-13,.,-22,
C[C@@H](C(=O)NCc1ccccn1)[C@@H]1C[C@@]1(C)[C@@H](NC(=O)OCc1ccccc1)c1ccccc1,i,4,3,-7,9,-5,19,-10,
Cc1nc2ccc(NS(=O)(=O)c3cccc([N+](=O)[O-])c3)cc2s1,.,8,-28,.,.,5,3,-20,
O=c1onc(-c2ccccc2Cl)n1-c1ccccc1Cl,i,0,-2,.,.,-8,-3,.,
CCn1c(SCC(=O)Nc2ccc3c(c2)oc2ccccc23)nnc1-c1ccc(N)cc1,i,-3,-12,-19,-3,52,42,-3,
COc1ccc2c(c1)cc1n2CCN=C1N,i,0,-1,1,62,10,.,-7,eIF4H FP inh retest=-6;PABP FP inh retest=0
CC(C)c1ccc(CN2CCN(S(=O)(=O)c3ccc(Cl)s3)CC2)cc1,.,3,-8,.,.,.,24,2,
CC(C)c1ccc(NC(=O)Cc2c(C(=O)O)n(C)c3ccccc23)cc1,i,-3,5,-5,15,0,7,-8,
COC(=O)CCNC(=O)c1ccc2nc(Cc3ccc(OC)cc3)oc2c1,i,5,4,.,.,11,6,5,
O=C(O)c1cccc(NC(=S)NC(=O)c2ccc(-c3ccc(Cl)cc3)o2)c1,i,14,5,-3,-4,-7,-23,-4,
O=C(Nc1cccnc1)c1coc(=O)c2ccccc12,i,-1,-1,2,4,11,33,-12,
COc1ccc(C(CNC(=O)COc2cc(C)ccc2Cl)N2CCCCC2)cc1 (stereo unspecified),i,3,3,.,.,-15,-44,.,
Cc1noc(C)c1S(=O)(=O)N1CCCC(C(=O)NCc2ccccc2Cl)C1 (stereo unspecified),i,-1,0,-11,-3,1,4,-10,
COc1ccc(-c2cc(C(=O)Nc3ccc(C)c(C)c3)no2)cc1,i,-2,0,-5,2,-1,-12,-13,
O=C(O)c1cocc1C(=O)O,.,-3,2,.,.,.,1,-27,

# The closing two compounds of the section before lead into the next.
SMILES,Rce1 inhib,MT1-MMP act inh,MT1-MMP act inh RFP,eIF4H FP inh,PABP FP inh,CSC inhib,Env fusion inh,Yeast UUG start,others
COc1ccc(-c2cc(C(=O)Nc3ccc(C)c(C)c3)no2)cc1,i,-2,0,-5,2,-1,-12,-13,
O=C(O)c1cocc1C(=O)O,.,-3,2,.,.,.,1,-27,
COc1ccccc1C(=O)N(Cc1ccc(Cl)cc1)C1CCS(=O)(=O)C1 (stereo unspecified),i,-2,0,-6,11,-8,-10,.,
COc1cc(NC(=O)CCNC(=O)Cn2ccc3ccccc3c2=O)cc(OC)c1OC,i,3,-2,-12,14,-4,.,0,
CC(=O)O[C@H]1c2ccccc2-c2ccccc2[C@@H]1OC(C)=O,i,-1,-1,8,1,0,4,4,
O=C(CN(c1cccc(Cl)c1)S(=O)(=O)c1ccc(Cl)cc1)N1CCc2ccccc2C1,i,2,1,3,0,15,-40,.,
CC(=O)c1cccc(NS(=O)(=O)N2CCOCC2)c1,i,0,3,-8,-3,-6,-17,-4,
O=C(NCCc1c[nH]c2ccccc12)/C(=C\c1cccnc1)NC(=O)c1ccco1,i,1,2,-1,-7,1,-2,.,
Cc1nc2ccc(NC(=O)COc3ccccc3)cc2s1,i,3,-7,-6,-4,.,-19,.,
CCOC(=O)c1cnc2c(C)c(C)ccc2c1Nc1ccc(S(=O)(=O)Nc2ncccn2)cc1,i,0,1,6,-9,7,23,-2,
O=C(Nc1cc(S(=O)(=O)Nc2ccccc2Cl)ccc1O)c1cc2c(s1)CCCC2,i,3,-10,-8,0,8,5,.,
O=C(COc1ccc2ccccc2c1Br)Nc1cccnc1,i,.,.,-5,14,2,-36,-6,
COc1cc(C=O)ccc1OCC(=O)NC(C)(C)C,i,2,7,0,-9,-4,-17,.,
CC1CCN(C(=O)CSc2nc(N)c3c4c(sc3n2)CN(C)CC4)CC1,i,-1,12,12,16,.,.,17,
COc1ccc(-c2nnc(SCC(=O)N3CCCCC3)o2)cc1,i,-1,3,-3,8,.,14,-22,
CCN(CC)C(=S)SCC(=O)NC12CC3CC(CC(C3)C1)C2,i,-10,-10,1,4,53,10,2,
Cc1cc(=O)[nH]c(SCC(=O)Nc2ccc(F)cc2)c1C#N,i,3,3,-9,5,-11,-39,-13,
CSc1cccc(CN2CCC(Oc3ccc(C(=O)N4CCCCC4)cc3)CC2)c1,i,1,-3,-17,-4,0,22,-3,
Clc1cccc(COn2c(-c3ccc(Cl)cc3Cl)nc3ncccc32)c1,i,-13,-12,-10,-1,-7,.,-14,
Cc1ccc(-n2nc3c(N4CCC(C(=O)NCc5ccc(C)o5)CC4)nnc(C)c3c2C)cc1,i,10,12,.,.,2,9,8,
CCOCCCNC(=O)C(NC(=O)c1ccc(NC(C)=O)cc1)c1ccccc1 (stereo unspecified),i,2,7,1,-3,-1,-39,.,
COc1ccc2nc(Nc3ccccc3)sc2c1,i,5,-4,-1,-2,.,-111,-18,
